HIV Env fusion – HIV envelope-mediated fusion inhibition; actives 1.1% (n = 360,000); inhibition, % at 12.3 µM; HeLa-JRFL Env/CEM21 cell fusion, luciferase; AID 651610;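 active means mean replicate inhibition score of at least 50 and every replicate individually at or above 50; inconclusive means only one of the two criteria met; inactive means mean below 50 and not all replicates reaching 50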;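 further: 0% = plate neutral controls and 100% = maraviroc near 300 nM; one replicate is shown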
Rce1 inh – blocks yeast Ras-converting enzyme. AID 2563. actives 0.27% (n = 290,000). calls only. yeast membranes, quenched prenylated peptide cleavage fluorescence. Q03530;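 active means fall in fluorescence gain of 50% or more versus controls, with final raw signal at or below 3038400; inconclusive means same 50% fall but final raw signal above 3038400; inactive means fall in fluorescence gain under 50%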;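 further: plate controls were neutral control wells for no effect and wells lacking membranes for full effect; tested at 10 µM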
Target sequence (Q03530 whole entry, looked up): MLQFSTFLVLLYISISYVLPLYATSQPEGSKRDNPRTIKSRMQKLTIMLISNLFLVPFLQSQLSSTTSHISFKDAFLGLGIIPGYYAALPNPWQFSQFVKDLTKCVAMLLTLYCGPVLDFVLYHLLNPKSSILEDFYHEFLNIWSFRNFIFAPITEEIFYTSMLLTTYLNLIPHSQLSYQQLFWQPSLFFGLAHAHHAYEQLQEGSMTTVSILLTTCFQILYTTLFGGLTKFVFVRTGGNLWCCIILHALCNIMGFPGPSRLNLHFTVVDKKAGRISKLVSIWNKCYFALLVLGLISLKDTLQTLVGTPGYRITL
Yeast UUG start – yeast start codon fidelity modulation. actives 0.13% (n = 350,000). activity score, % at 18.7 µM. S. cerevisiae UUG-firefly luciferase reporter, luminescence/redox ratio;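 active means replicate mean at a twofold rise or more, about +100% in these data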;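 further: firefly luciferase made from a UUG start codon reports start codon fidelity; reporter light over untreated wells divided by growth signal over untreated wells; some hits fall short of that in this replicate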
MT1-MMP act inh – MT1-MMP (human) activation inhibition; P50281; HT1080 RFP-PRO-GFP cells, GFP/RFP ratio fluorescence, overnight; percent of plate control window, DMSO zero; GFP/RFP ratio change, % at 20 µM; actives 0.061% (n = 360,000); AID 651647;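 active means GFP/RFP ratio change of at least 30% with cell ATP level not reduced by more than half and red fluorescence within 50% of control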; further: strong numbers were not always called active
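Compound: 20 µM single dose, 1% DMSO / System: HT1080 RFP-PRO-GFP cells / Controls: DMSO and RFP-L50D-GFP cell wells / Read-out basis: GFP/RFP fluorescence ratio / Schedule: overnight compound exposure at 37 °C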
CSC inhib – cancer stem cell inhibition. actives 1.1% (n = 300,000). inhibition, % at 7.5 µM. cancer stem cell-like cells viability, luminescence. AID 2717;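 active means mean at 75% or more and at least half the replicates too; inconclusive means mean and replicates disagree; tested in HMLE shEcad cells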;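 further: 0% = median of negative and 100% = median of positive control wells; the first replicate is given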
PABP polyA inh – PABP-poly(A) binding inhibition; P11940; PABP-poly(A) RNA binding, fluorescence polarization; inhibition, % at 35 µM; actives 1% (n = 290,000); AID 2014;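 active means 50% or more with normal probe brightness, or confirmed in later tests; inconclusive means above 50% with abnormal brightness, or retests that disagree; inactive means below 50% or failed in later tests; about a fifth of its hits are not listed in these tables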;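 further: calls also rest on retests at 20 µM and on dose response follow-up; controls were probe without protein and protein plus probe with vehicle; some compounds called inactive have numbers as strong as hits; many hits fall short of the cut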
Target sequence (P11940 whole entry, looked up): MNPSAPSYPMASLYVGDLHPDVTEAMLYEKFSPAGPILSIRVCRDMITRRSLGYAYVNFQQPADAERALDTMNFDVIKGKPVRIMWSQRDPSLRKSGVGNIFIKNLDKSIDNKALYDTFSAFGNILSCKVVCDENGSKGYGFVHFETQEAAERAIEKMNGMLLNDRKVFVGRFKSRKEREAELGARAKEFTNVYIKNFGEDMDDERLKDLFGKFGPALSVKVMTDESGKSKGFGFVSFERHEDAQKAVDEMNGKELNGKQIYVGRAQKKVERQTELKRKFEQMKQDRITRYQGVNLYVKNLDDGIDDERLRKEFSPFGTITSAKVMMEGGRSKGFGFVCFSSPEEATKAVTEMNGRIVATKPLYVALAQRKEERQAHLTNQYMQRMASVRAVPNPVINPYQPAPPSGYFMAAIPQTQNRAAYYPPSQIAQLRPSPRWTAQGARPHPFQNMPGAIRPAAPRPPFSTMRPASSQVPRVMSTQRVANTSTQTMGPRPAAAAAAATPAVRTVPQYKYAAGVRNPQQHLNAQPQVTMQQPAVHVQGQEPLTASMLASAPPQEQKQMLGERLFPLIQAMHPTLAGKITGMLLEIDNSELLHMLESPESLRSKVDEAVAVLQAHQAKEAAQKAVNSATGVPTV
eIF4H FP inh – inhibitors of RNA binding by human eIF4H. inhibition, % at 35 µM. eIF4H fluorescence polarization binding assay. Q15056. actives 0.94% (n = 290,000);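 active means 50% or more with normal probe brightness, or confirmed in later tests; inconclusive means above 50% with abnormal brightness, or retests that disagree; inactive means below 50% or failed in later tests; about a fifth of its hits are not listed in these tables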;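 further: calls also rest on retests at 20 µM and on dose response follow-up; 0% = protein and probe with vehicle and 100% = probe without protein; strong numbers were not always called active; many hits fall short of the cut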
eIF4H FP inh retest – also measured in eIF4H FP inh; calls as there; inhibition, %; compound at 20 µM; confirmation average;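 mean of two retest wells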
PABP polyA inh retest – recorded beside PABP polyA inh, whose call it bears; inhibition, %; compound at 20 µM; confirmation repeats;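 mean of two retest wells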
MT1-MMP act inh RFP – second read-out of MT1-MMP act inh, no call of its own (marks repeat the call); RFP signal change, %; measured here: RFP expression control read;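 0 = vehicle wells; hits needed this value within 50% of zero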
Starred values were filed as active, the others as inactive; i = inactive; ? = inconclusive; nt = not tested or not shown. These rows are one share of the data; the hit share may differ from the screen's.

SMILES	HIV Env fusion	Rce1 inh	Yeast UUG start	MT1-MMP act inh	MT1-MMP act inh RFP	CSC inhib	PABP polyA inh	eIF4H FP inh	others
CCSc1ncc(Cl)c(C(=O)Nc2cc(C)ccc2C)n1	-3	i	nt	-2	-5	-7	15	-2
O=C(C1CCN(Cc2ccccc2)CC1)N1CCCC1	3	i	-19	2	4	2	-6	8
COc1cccc(N2CCN(C(=O)CSc3ccc(F)cc3)CC2)c1	-7	i	nt	2	-1	2	0	-5
Cc1cc(C(=O)N2CCN(c3ccc([N+](=O)[O-])cc3)CC2)no1	1	i	nt	nt	nt	-6	5	4
CN1C(=O)CSc2ccc(NC(=O)N3CCN(c4ccccn4)CC3)cc21	nt	i	nt	18	-4	-8	0	12
CCOc1ccc(NC(=O)N2CCC(NC(=O)C(Cc3ccc(OC)c(OC)c3)NC(C)=O)CC2)cc1 (stereo not drawn)	-25	i	-5	9	5	9	4	3
Cc1cccc(-n2c(SCc3ccc([N+](=O)[O-])cc3)nnc2-c2c[nH]c3ccccc23)c1	41	i	nt	-4	-9	nt	2	-5
CCN(CC)C(=O)c1cccc(-c2csc(C(NC(C)=O)c3ccccc3)n2)c1 (stereo not drawn)	19	nt	-7	18	-5	nt	nt	nt
CC(OC(=O)C1=Cc2ccccc2OC1)C(=O)NC1CCCC1 (stereo not drawn)	nt	i	nt	3	-18	11	-10	-11
Oc1cccc(Nc2nc(O)c(/C=C3\C=Nc4ccccc43)s2)c1	-26	nt	-13	-159	-6	54	?	?
COc1ccccc1CN1CC(C(=O)N2CCCCCCC2)CCC1=O (stereo not drawn)	-7	nt	-21	-4	1	-5	5	-7
CCN(C(=O)COC(=O)c1[nH]c(C)c(C(C)=O)c1C)c1c(N)n(Cc2ccccc2)c(=O)[nH]c1=O	nt	nt	-2	-2	2	-4	nt	nt
NCCCCCC(=O)Nc1ccncc1	-8	i	nt	4	2	-12	7	-5
S=C(Nc1ccc(Br)cc1)NC1CCCCC1	-4	i	nt	1	0	nt	6	4
CN1CC(=O)Nc2ccc([N+](=O)[O-])cc2C1=O	9	i	5	0	-4	-22	-8	2
COc1cccc(NC(=O)CN(C)C(=O)CSc2ncnc3sc(C)c(C)c23)c1	5	i	-14	-4	-3	4	nt	nt
CCOC(=O)N1CCN(c2nnc(-c3ccccc3)c3ccccc23)CC1	27	i	-20	1	-2	-6	4	-4
CCCNC(=O)C1(C)CCN(Cc2cc3ccccc3o2)C1 (stereo not drawn)	2	nt	3	2	4	nt	nt	nt
Cc1ccc(/C=C2\SC(=S)N(CCCC(=O)Nc3ccccc3C(=O)O)C2=O)cc1	68*	i	-18	2	7	0	1	-10
CCN1CCN(S(=O)(=O)c2ccc(Cl)c(C(=O)N(C)C(c3ccccc3)c3ccccc3)c2)CC1	nt	i	-4	-4	-4	-5	nt	nt
N#Cc1c(-c2ccc(F)cc2)noc1N	-55	i	-15	2	2	3	-2	-2
CCc1ccc(NC(=O)/C(C#N)=C/c2cc3ccc(C)cc3nc2N2CCOCC2)cc1	10	i	nt	-55	-3	-6	2	9
COC(=O)c1ccc(C(=O)NCCCCO)cc1	3	i	nt	-4	4	-9	-7	7
O=C(N=C1SC2CS(=O)(=O)CC2N1c1ccccc1Cl)C1CCCO1 (stereo not drawn)	10	i	-18	1	3	1	-9	-6
COC(=O)CCC(=O)Nc1cccc2ccccc12	-36	i	2	-1	-3	3	-21	-8

(more compounds)
SMILES	HIV Env fusion	Rce1 inh	Yeast UUG start	MT1-MMP act inh	MT1-MMP act inh RFP	CSC inhib	PABP polyA inh	eIF4H FP inh	others
O=C(NCc1ccc2c(c1)OCO2)C1CCN(C(=O)Nc2ccc(Cl)cc2)CC1	24	i	-22	2	-4	6	3	5
CN1CCC(=O)N([C@H](CSc2ccccc2)c2ccccc2)CC1	-6	i	-10	1	0	5	-1	1
CCOc1ccc2nc3ccc4[nH]onc4c3c2c1	?	i	5	-3	-6	56	nt	nt
Cc1nc(CSc2ccc(Cl)cc2)cc(NCc2ccccc2)n1	nt	i	3	0	-1	7	4	2
CC1=C(C(=O)OC(C)C)C(c2ccncc2)n2ncnc2N1 (stereo not drawn)	nt	i	nt	3	2	-2	4	2
NS(=O)(=O)c1ccc(CCNC(=O)C(=O)NCC2OCCN2S(=O)(=O)c2ccc(Cl)cc2)cc1 (stereo not drawn)	33	i	-3	-3	-18	1	-3	3
CN(C)c1ccc(CN(C)C2CCCCC2)cc1	nt	i	-4	4	4	6	1	4
COCc1nnc(NS(=O)(=O)c2ccc(C)cc2)s1	-54	nt	1	-1	1	-14	8	-2
COc1ccc(C2N(c3ccc(F)cc3)C(=O)C3CCCN32)cc1 (stereo not drawn)	-7	i	-24	-2	3	nt	0	-5
COC(=O)Cc1[nH]nc2c1C1(C(=O)N(Cc3ccccc3)c3ccccc31)C(C#N)=C(N)O2 (stereo not drawn)	-26	i	13	5	-3	-15	2	13
O=C(CCS(=O)(=O)c1cccs1)Nc1ccc(C(=O)NC2CCCC2)cc1	13	i	-17	-5	2	-2	-12	1
Cc1nn(-c2ccccc2)c(C)c1/C=C/C(=O)OCC(=O)NC1CCS(=O)(=O)C1 (stereo not drawn)	5	i	-16	1	3	0	-12	6
CCCCN(C(=O)C1CC(=O)N(c2ccc(C)cc2)C1)c1c(N)n(CCC)c(=O)[nH]c1=O (stereo not drawn)	9	nt	-10	-3	-4	nt	nt	nt
CN(C)c1ccc(CC(=O)N2CCCCC2c2cc(C(=O)Nc3ccccc3)no2)cc1 (stereo not drawn)	22	nt	1	-8	-13	nt	nt	nt
Cc1cc(NCCOCCO)n2c(nc3ccccc32)c1C#N	-12	i	-10	-1	-5	1	6	13
COc1ccc(S(=O)(=O)N2CCCC(C(=O)N3CCCCCC3)C2)cc1 (stereo not drawn)	nt	i	-8	5	-2	-14	3	3
Cc1ccc(C)c(NC(=S)NCCSc2ccc(Cl)cc2)c1	-5	i	nt	1	-3	17	1	2
O=c1[nH]c(-c2ccccn2)nc2ccccc12	nt	i	-13	5	2	8	-9	-3
N#Cc1ccc(Cn2c(-c3ccc(F)cc3)noc2=O)cc1	11	i	-11	-6	-6	20	1	-14
COc1cc(-c2cnc3c(NC=O)cc(-c4ccc(N5CCN(C)CC5)cc4)cn23)cc(OC)c1OC	-43	nt	-37	5	5	nt	nt	nt
COc1ccc(S(=O)(=O)N2CCC(C(=O)NCCC3=CCCCC3)CC2)cc1OC	25	i	-17	1	-7	-30	-1	-1
Cc1ccc(N(C)S(=O)(=O)c2cccc(C(=O)NC3CC(C)(C)NC(C)(C)C3)c2)cc1	21	i	-1	2	0	-6	nt	nt
O=C(CSc1nnc(-c2ccccc2O)o1)N1CCOCC1	-10	i	-23	2	0	nt	0	-6
COc1cccc(NC(=O)CN2C(=O)NC(C)(CC(C)C)C2=O)c1 (stereo not drawn)	6	i	-9	4	6	15	-4	-6
NS(=O)(=O)c1ccc(CCNC(=O)CNC(=O)COc2ccccc2)cc1	-3	i	-6	2	0	5	5	6

The list goes on.
SMILES	HIV Env fusion	Rce1 inh	Yeast UUG start	MT1-MMP act inh	MT1-MMP act inh RFP	CSC inhib	PABP polyA inh	eIF4H FP inh	others
C=CCn1c(C(C)NC(=O)c2ccc(C)cc2)n[nH]c1=S (stereo not drawn)	-7	i	-15	-1	0	-7	1	2
Cc1cc2nc(-c3ccco3)c(Cc3cccc(F)c3)n2c(C)c1Br	9	nt	-7	0	-2	nt	nt	nt
Cc1ccc(OCC(=O)Nc2ccc(N3CCN(S(C)(=O)=O)CC3)cc2)c(C)c1	5	i	-24	-5	0	-1	-2	3
CC(=O)NC(Cc1ccc(C)cc1)C(=O)NC1CCN(C(=O)c2cnccn2)CC1 (stereo not drawn)	5	i	-7	-2	2	2	-4	-3
CCOC(=O)c1ccc(N2C(=O)CC(N3CCC(O)(c4ccc(Cl)cc4)CC3)C2=O)cc1 (stereo not drawn)	-70	i	-17	-8	-10	4	-9	-7
COc1ccc(CC(=O)NNC(=O)c2cccnc2)cc1OC	16	nt	-23	1	9	-5	1	-2
COc1ccc(N2CCCC2=N)c(OC)c1	25	nt	nt	0	4	-5	7	-7
Cc1ccc(N=Nc2ccc(O)cc2)c(Br)c1	-138	i	-52	4	-8	87*	-9	0
O=C(O)c1cccc2c1-c1c(cccc1[N+](=O)[O-])C2	1	nt	-6	1	7	nt	nt	nt
CCOc1ccccc1NC(=O)COc1ccc2ccc(=O)oc2c1	-5	i	-10	0	2	nt	-6	-2
CCCCC(=O)Nc1cc(NC(=O)CCCC)cc(C(=O)O)c1	nt	nt	-5	-3	1	-13	-6	8
CN(Cc1ccc(Cl)c(Cl)c1)C(=O)C1CSC2(C)CCC(=O)N12 (stereo not drawn)	-29	nt	-4	-6	-1	nt	nt	nt
FC(F)(F)c1cc(CCN2CCNC[C@@H]2CC2CCCCC2)cc(C(F)(F)F)c1	85*	nt	13	-3	-3	nt	nt	nt
CCCOc1ccc(-c2c(C(=O)N/N=C/c3ccco3)nnn2-c2nonc2N)cc1	1	i	-8	-2	0	-6	-3	-5
O=C(CN1C(=O)c2ccccc2C1=O)OCc1nc2ccsc2c(=O)[nH]1	19	nt	-10	-4	1	9	nt	nt
COc1cccc(NC(=O)CCCCCn2nnc3ccccc3c2=O)c1	11	i	nt	-1	-1	-4	-6	-4
COCCNc1cc(C)nc2ccccc12	nt	i	-17	-1	5	3	14	4
O=C(Nc1ccc(C(=O)N2CCCC2)cc1)c1ccccc1Br	nt	i	-1	-1	0	10	-8	1
CC(=O)Nc1cncc(-c2ccccc2N(C)C)n1	3	nt	1	-2	2	nt	nt	nt
CCOC(=O)Cc1cc(=O)n2[nH]c(C)c(C#N)c2n1	-12	i	-17	3	-1	5	17	-6
[O-][n+]1c2c(nn1-c1ccccc1)/C(=N/O)CCC2	-6	i	nt	0	3	-9	2	2
O=C(NCC(=O)N1CCN(c2ncccn2)CC1)c1ccccc1OC(F)F	86*	nt	-10	0	2	-10	nt	nt
CCc1nnc(NC(=O)CSc2nnc3scc(-c4ccc(C)cc4)n23)s1	12	i	-16	-4	-7	11	nt	nt
O=C(c1noc2c1CCCC2)N1CCc2ccccc2C1	-29	i	-20	-2	1	3	1	13
O=C(O)c1cc(Cl)c2c(c1)[C@@H]1C=CC[C@@H]1[C@H](c1ccc(S(=O)(=O)N3CCOCC3)cc1)N2	nt	i	19	4	12	-7	4.1*	74*	eIF4H FP inh retest=78*;PABP polyA inh retest=85*

Next records follow.
SMILES	HIV Env fusion	Rce1 inh	Yeast UUG start	MT1-MMP act inh	MT1-MMP act inh RFP	CSC inhib	PABP polyA inh	eIF4H FP inh	others
COC(=O)c1sc2ccccc2c1NC(=O)c1ccc(S(=O)(=O)N2CCCCC2C)cc1 (stereo not drawn)	-4	i	nt	-7	-5	nt	3	-3
COC(=O)[C@@H]1C[C@@]2(O)[C@@H](O)[C@@H](O)[C@@H](O)C[C@H]2N1C/C=C/c1ccccc1	-5	i	-10	5	5	2	-2	-4
COc1ccc(CNC(=O)c2csnn2)cc1	10	i	-16	-4	-1	nt	10	-2
O=C(Cn1cc([N+](=O)[O-])cn1)Nc1nccs1	-16	i	nt	2	6	-7	-1	-10
COc1ccc(-c2noc(N3CCC(C(=O)NCCCN4CCCCC4)CC3)n2)cc1	17	i	-11	1	-2	-14	18	34
O=C(Nc1ccc2oc(=O)ccc2c1)c1ccc(-c2cccc(Cl)c2)o1	-1	i	nt	4	-1	18	-14	-5
O=C(Cc1ccccc1)NCC(=O)Nc1ccccc1Br	-7	i	-15	0	-1	-4	3	-4

Screens as filed in PubChem BioAssay.
